fixLJ activator: B. multivorans fixK reporter activation. B. multivorans fixK-promoter GFP reporter, 18 h; stronger effect = higher value. z-score (test concentration not listed). 0.3% of 29,000 active. AID 1918990;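 active means replicate mean overnight rise in green fluorescent reporter signal, 3 or more SD over negative controls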;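 further: score is relative to vehicle wells of the plate; 300 nL library stock went into each well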
Active calls of the source: *; & = joins results of further samples.

molecule	fixLJ activator
COc1ccccc1NC(=O)Cn1c(=O)n(-c2cccc(Cl)c2)c(=O)c2c1c1cc(C)ccc1n2C	0.01
COC(=O)c1ccc(NC(=O)CCc2c(C)nc3c(c(C)nn3C(C)(C)C)c2C)cc1	-0.34
COc1cc2c(-c3ccccc3O)nc3c(c(C)nn3-c3ccccc3)c2cc1OC	-0.94
N#C/C(=C\c1ccc(-c2cc(Cl)ccc2Cl)o1)C(=O)Nc1ccccc1C(=O)O	-2.92
Cc1cc(CC2CN(C3CCN(C4CCCC4)CC3)CC2O)on1 (stereo not drawn)	-2.68
CCOC(=O)c1cnc2c(C)c(Cl)ccc2c1NCCc1ccccc1	1.33
COc1nc2c(cc1CNC(=O)CCc1ccccc1)C(=O)N(C1CCCC1)C2	0.14
CSc1nn2c(=O)cc(CN3CCN(Cc4cccc(C)c4)C(=O)C3)nc2s1	-0.28
O=C(CCCN1CCC(O)(c2ccc(Br)cc2)CC1)c1ccc(F)cc1	-0.08
CCOc1ccc(/C=C/c2nc(C#N)c(N3CCN(c4ccc(OC)cc4)CC3)o2)cc1	-1.23

Among those listed so far, 4 have a halogen:
molecule	fixLJ activator
COc1ccccc1NC(=O)Cn1c(=O)n(-c2cccc(Cl)c2)c(=O)c2c1c1cc(C)ccc1n2C	0.01
N#C/C(=C\c1ccc(-c2cc(Cl)ccc2Cl)o1)C(=O)Nc1ccccc1C(=O)O	-2.92
CCOC(=O)c1cnc2c(C)c(Cl)ccc2c1NCCc1ccccc1	1.33
O=C(CCCN1CCC(O)(c2ccc(Br)cc2)CC1)c1ccc(F)cc1	-0.08

The list goes on:
molecule	fixLJ activator
CCOC(=O)COc1ccc(-c2nnn(CC(=O)Nc3ccccc3)n2)cc1	-1.03
Cc1cc(C)cc(NC(=O)CSc2oc(-c3ccco3)nc2S(=O)(=O)c2ccccc2)c1	-1.47
Cc1ccc(Cl)cc1N1CCN(C(=O)C2CCC(=O)NC(=O)N2)CC1 (stereo not drawn)	-0.59
CC1(c2ccc(Cl)cc2)CC(C)(C)N(C(=O)c2ccccc2)c2ccccc21 (stereo not drawn)	-2.12
CN(CCO)CC1CN(C(=O)c2ccc3cc[nH]c3c2)CC1CO (stereo not drawn)	0.76
COc1cccc2c1C1(CCN(C(=O)CCn3c(=O)[nH]c4ccccc43)CC1)OCC2	-0.16
COc1ccc(-c2nc(SCC(=O)Nc3ccc4c(c3)OCCO4)c(-c3ccc(C)cc3)[nH]2)cc1OC	-1.08
CC(C)OCCCNC(=O)c1ccc2c(c1)N(Cc1c(F)cccc1Cl)C(=O)c1ccccc1S2	1.02
CCOc1ccc(N(CC)C(=O)c2cc3c(s2)-c2ccccc2OC3)cc1	0.36
COc1ccc(CN2C(=O)CC3C2CCN3C(=O)CCc2c(C)noc2C)cc1 (stereo not drawn)	1.12
O=C(CSc1ccncc1)NCC1(Cn2ccnc2)CC1	0.54
O=C(O)c1csc(CCNC(=O)N2CCCN(c3ncccn3)CC2)n1	-0.13
O=C(CCS(=O)(=O)c1cc(Br)cc2c1N(C(=O)C1CC1)CC2)Nc1ccc(F)cc1	1.12
O=C1OC(C(=O)Nc2cc(C(F)(F)F)ccc2Cl)Cc2ccccc21 (stereo not drawn)	-2.49
Cc1cccc(C)c1NC(=O)Cn1c(=O)n(Cc2ccc(C(=O)NCc3ccco3)cc2)c(=O)c2sccc21	-4.42
CC1(C(=O)NC(c2cnc3ccccc3c2)C2CC(O)C2)CCCC1 (stereo not drawn)	0.72
CC(C)c1ccc(Nc2c(-c3ccsc3)nc3ccc(Cl)cn23)cc1	-0.83
Cn1c(=O)cc(SCC(=O)N2CCN(c3ccccc3)CC2)c2ccccc21	-0.35
COc1ccccc1CN1CCC(O)[C@]2(CCCN(C(=O)c3ccoc3)C2)C1 (stereo partly drawn)	-0.93
CSc1nc2sc3c(c2c(=O)n1-c1ccccc1)CCC(C(C)(C)C)C3 (stereo not drawn)	-1.93
COc1ccc(-n2c(=O)c3sc4ccccc4c3n(C)c2=O)cc1	-0.29
COc1cc(OC)cc(C(=O)Nc2ccc(S(=O)(=O)Nc3onc(C)c3C)cc2)c1	0.19
CC(C)C(NS(=O)(=O)c1ccc2c(c1)oc(=O)n2C)C(=O)NCc1ccccc1 (stereo not drawn)	0.17
Cc1ccc(NC(=O)c2cnn3c(C(F)F)cc(-c4ccccc4)nc23)c(C)c1	0
CCN1CC2(CCN(C(=O)c3ccc(O)c(OC)c3)CC2)OC1=O	-0.42
COc1ccc(N(C(=O)c2ccc(C(C)(C)C)cc2)S(=O)(=O)c2ccc(Cl)cc2)cc1	-0.96
Cc1ccc(C(=O)c2cn(Cc3ccccc3C)c3nc(C)ccc3c2=O)cc1	-0.41
COc1ccc(CNC(=O)c2cc3c(=O)oc4ccc(C)cc4c3s2)c(OC)c1	0.55
Cc1cc(C)c(C(=O)NCc2nnnn2-c2ccccc2)c(=O)[nH]1	0.63
COc1cc2ccccc2cc1C(=O)Nc1ccc2oc(-c3cccc(C)c3)nc2c1	0.34
Cc1ccc(C(=O)N2CCCC(N)CC2)cc1N1CCNC1=O (stereo not drawn)	0.22
O=C(Nc1cc(C(F)(F)F)ccc1Cl)c1cc(-c2cccs2)nc2ccccc12	-1.09
COc1ccc(NC(C)(C)C(=O)N2C[C@@H]3COC[C@H](C2)N(C)C3)cc1	-0.05
CNc1cc(C(=O)N(C)Cc2nc(-c3ccccn3)no2)ccn1	-0.83
O=C(Cn1cccc1C(=O)c1ccccc1)NCc1ccccc1Cl	-0.88
CCOc1ccc(NC(=O)CN(c2ccccc2OCC)S(=O)(=O)c2ccccc2)cc1	1.28
CCCc1nc(CN(C)Cc2cc3n(n2)CCN(S(=O)(=O)CC)C3)no1	0.66
COc1cccc(NC(=O)Cn2c(=O)n(Cc3ccc(F)cc3)c(=O)c3sc4ccccc4c32)c1	0.78
COc1cccc(CNC(=O)c2ccc3nc(N4CCCCC4)sc3c2)c1OC	-2.62
CCOC(=O)c1c(-c2ccccc2)csc1NC(=O)c1nc(S(=O)(=O)CC)ncc1Cl	1.67

Shown field by field: entries from further up.
> COc1cccc(CNC(=O)c2ccc3nc(N4CCCCC4)sc3c2)c1OC
  fixLJ activator = -2.62

> COc1cccc(NC(=O)Cn2c(=O)n(Cc3ccc(F)cc3)c(=O)c3sc4ccccc4c32)c1
  fixLJ activator = 0.78

Following part:
molecule	fixLJ activator
COc1cccc(C(=O)N2CCC(C(=O)Nc3cccc(Cl)c3)CC2)c1	-4.1
Cc1ccnc(NS(=O)(=O)c2ccc(NC(=O)C(C)(C)Oc3ccc(Cl)cc3)cc2)n1	-2.6
COc1ccc(N(CC(=O)Nc2cccc(Cl)c2C)S(=O)(=O)c2c(C)nn(C)c2C)cc1	-0.89
COc1cc2c(-c3ccccc3Cl)nc3c(c(C)nn3-c3ccccc3)c2cc1OC	-0.95
CC(C)(C)n1ccc(C(=O)NC(Cc2cnc[nH]2)C(=O)O)c1 (stereo not drawn)	-1.68
Cc1ccc(NC(=O)c2c(C)oc3ccc(O)c(CN4CCCCC4)c23)cc1	-1.31
Cc1oc(-c2ccccc2)nc1CC(=O)N1CCC(CO)C(O)C1 (stereo not drawn)	0.06
CC(C)(C)c1ccc(C(=O)N2CCC(c3noc(-c4ccc(S(=O)(=O)N5CCCC5)cc4)n3)CC2)cc1	-1.69
CCC(=O)N1CCc2[nH]cnc2C12CCN(c1cnccn1)CC2	0.05
CCNC(=O)c1ccc(NC(c2nccn2C)C(C)C)nc1 (stereo not drawn)	0.29
COC(=O)c1ccc(Cn2c(SCc3cccc(C)c3)nc3ccncc32)cc1	1.27
O=c1c2cccnc2n(Cc2ccc(Cl)cc2)c(=O)n1Cc1ccc(F)cc1	-1.77
COC(=O)c1nnn(-c2ccc(Cl)cc2)c1C(=O)OC	1.18
Cc1cccc(C(=O)Nc2c(-c3ccccc3)nc3cc(C)ccn23)c1	-2.08
COc1cccc(-c2ccnc3[nH]n(-c4ccccc4)c(=O)c23)c1	0.46
CCOC(=O)CC(NC(=O)c1cc2cc(OC)ccc2oc1=O)c1ccc(OC)cc1 (stereo not drawn)	-0.22
CC(C)CS(=O)(=O)c1oc(-c2ccc(F)cc2)nc1S(=O)(=O)c1ccccc1	-1.27
COCC[C@]1(O)CCN(C(=O)Cc2coc3cc(C)c(Cl)cc23)CC1C (stereo partly drawn)	-0.07
CCN1CCc2nc3sc(C(=O)Nc4cccc(Cl)c4C)c(N)c3cc2C1	0.99
COc1ccc2[nH]c3c(c2c1)CCN(C(=O)CCC1CCCC1)C3c1ccc(F)cc1 (stereo not drawn)	0.36
CCCc1cc(C(=O)NC(c2cnc3ccccc3c2)C2CC(O)C2)n[nH]1 (stereo not drawn)	0.12
Cc1ccccc1NC(=O)c1cc2sccc2n1Cc1ccc(F)cc1	0.55
Cc1oc2c(c1C(=O)N1CCCCC1C(=O)O)C(=O)CCC2 (stereo not drawn)	0.45
Cc1c(CCC(=O)N2CCCCC2)c(=O)oc2cc3occ(C(C)(C)C)c3cc12	-1.65
CCOc1ccc(OCC)c(NC(=O)C2CCCN(S(=O)(=O)c3ccc(C)cc3)C2)c1 (stereo not drawn)	-0.21
CCOC(=O)N1CCN(c2ncc3c(n2)CC(c2ccc(Cl)cc2)CC3=O)CC1 (stereo not drawn)	-0.91
Cc1cc(C)nc(NS(=O)(=O)c2ccc(NC(=O)c3cc(=O)c4ccc(C)c(C)c4o3)cc2)n1	-1.62
CCN(Cc1ccccc1)C(=O)c1nn(-c2ccc(OC)cc2)c(=O)c2c1c1ccccc1n2C	1.01
COc1cccc(C(=O)N2CCC3OCc4cnnn4C3C2)c1C (stereo not drawn)	-0.54
CCOC(=O)N1CCC(=C2c3ccc(Cl)cc3CCc3cccnc32)CC1	-0.91&0.41

Reprinted at random: 2 compounds from above
molecule	fixLJ activator
CCOC(=O)N1CCN(c2ncc3c(n2)CC(c2ccc(Cl)cc2)CC3=O)CC1 (stereo not drawn)	-0.91
CCCc1cc(C(=O)NC(c2cnc3ccccc3c2)C2CC(O)C2)n[nH]1 (stereo not drawn)	0.12

Next structures follow:
molecule	fixLJ activator
COc1ccc(NC(=O)C2CCN(c3nc(-c4ccc(OC)c(OC)c4)no3)CC2)cc1Cl	-0.67
CCOc1ccc(CCNC(=O)c2nnc(Cc3cc(OC)c(OC)c(OC)c3)o2)cc1OCC	-1.07
COc1cccc(-c2nc(SCC(=O)Nc3ccc4c(c3)OCCO4)c(-c3ccc(C)cc3)[nH]2)c1	0.23
CCOc1ccc(NC(=O)CN2C(C(=O)OC)=C(c3ccccc3)c3cc(Cl)ccc3S2(=O)=O)cc1	-0.09
COc1ccc2[nH]c3c(c2c1)CN(C(=O)CN(C)Cc1cccnc1)CC3	-1.1
Cc1cccc(NC(=O)CSc2nc(-c3ccco3)cc(C(F)(F)F)n2)c1C	-0.33
Cc1ccc2nc(C3CCCN3C(=O)CCCS(N)(=O)=O)[nH]c2c1 (stereo not drawn)	0.43
COCCNC(=O)c1c(NC(=O)c2cc(=O)c3cc(C)cc(C)c3o2)sc2c1CCCC2	-1.17
CCOc1ccc(CNC(=O)c2cc3oc4ccccc4c3n2C)cc1	0.94
COc1cccc2c1C1(CCN(C(=O)c3ccnn3C(C)C)CC1)OCC2	-0.23
CC(C)c1cc(NCc2ccc3cc[nH]c3c2)n2nccc2n1	-0.41
CCOc1ccc(S(=O)(=O)N(CC(=O)NCCSc2ccc(C)cc2)c2ccccc2)cc1	0.1
O=C(Cc1ccc(NC(=O)c2ccccc2N2CCOCC2)cc1)NC1CC1	0.59
CCC(C)C(=O)Nc1ccccc1NC(=O)CCN1CCCC1=O (stereo not drawn)	0.4
COc1ccc(C(=O)NC2COCCC2Oc2cccc(F)c2)cc1 (stereo not drawn)	-0.63
CCCn1c2ccc(F)cc2c2nnc(SCCN3CCCCC3)nc21	0.2
COc1ccccc1N1CCN(CCCNC(=O)c2nnc(Cc3c(F)cccc3Cl)o2)CC1	-0.21
N#CC1=C(N)N(c2cccc(Cl)c2)C2=C(C(=O)CCC2)C1c1cc(CN2CCOCC2)cs1 (stereo not drawn)	-1.43
CCCc1ccc(S(=O)(=O)N2CCC(Oc3ccc(-n4cnnn4)cc3)CC2)cc1	1.14
Cc1ccc2c(=O)cc(C(=O)Nc3ccc(S(=O)(=O)Nc4ncccn4)cc3)oc2c1C	-0.87
COc1ccc(OC)c(N(C)S(=O)(=O)c2ccc3c(c2)NC(=O)CC(=O)N3)c1	0.18
Cc1c(NC(=O)c2cc(-c3ccc(Cl)c(Cl)c3)on2)c(=O)n(-c2ccccc2)n1C	-0.66
CCOc1ccc(Nc2nc(C)c(NC(=O)c3cccc(F)c3)c(Nc3ccc(OCC)cc3)n2)cc1	-0.13
Cc1ccc2nc(-c3ccc(C)s3)c(Nc3ccc4c(c3)OCCO4)n2c1	-0.08
CCc1nn(C)c(NC(=O)NCC2(c3cccc(F)c3)CCOCC2)c1CC	0.53
CN(C)c1ccc(C2C=C(c3ccccc3)Nc3nnnn32)cc1 (stereo not drawn)	0.03
OCCc1ccccc1	-0.97
CC(NC(=O)c1ncc(F)cc1F)c1cn2ncsc2n1 (stereo not drawn)	-3.52
CN(C)S(=O)(=O)c1ccc(C(=O)NCCSc2c(-c3ccc(Br)cc3)[nH]c3ccccc23)cc1	0.33
CCc1[nH]c2ccc(CNc3nc(C)cc(NC)n3)cc2c1C	0.21
Cc1ccc(Sc2c(C)nn(-c3ccccc3)c2OC(=O)C(C)(C)C)cc1	-1.85
CC(=O)c1ccc(NC(=O)Cn2ncc3c(C)n(Cc4ccc(F)cc4)c(C)c3c2=O)cc1	-1.3
COc1ccc2[nH]cc(C(=O)NCCC3CCCN(C)C3)c(=O)c2c1 (stereo not drawn)	0.36
CS(=O)(=O)CCNCc1ccc(-c2ccc3ncnc(Nc4ccc(OCc5cccc(F)c5)c(Cl)c4)c3c2)o1	-1.76

This is a subset. The share of hits here may be higher or lower than overall.
